KCNQ2 block – KCNQ2 potassium channel inhibitors, primary screen, cell-based, CHO-K1, FluxOR thallium flux, B-score (AID 2156); B-score at 10 µM; 20 min; active compounds read low; only compounds with negative scores are shown here; some inactives read as strong as hits; O88943; hit rate 1.1% among 310,000;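 active means fluorescence ratio B-score at most minus 3 library SDs, with starting brightness B-score within 2 library SDs, cut at about -5.5 in these data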
Target sequence (O88943 whole entry, looked up): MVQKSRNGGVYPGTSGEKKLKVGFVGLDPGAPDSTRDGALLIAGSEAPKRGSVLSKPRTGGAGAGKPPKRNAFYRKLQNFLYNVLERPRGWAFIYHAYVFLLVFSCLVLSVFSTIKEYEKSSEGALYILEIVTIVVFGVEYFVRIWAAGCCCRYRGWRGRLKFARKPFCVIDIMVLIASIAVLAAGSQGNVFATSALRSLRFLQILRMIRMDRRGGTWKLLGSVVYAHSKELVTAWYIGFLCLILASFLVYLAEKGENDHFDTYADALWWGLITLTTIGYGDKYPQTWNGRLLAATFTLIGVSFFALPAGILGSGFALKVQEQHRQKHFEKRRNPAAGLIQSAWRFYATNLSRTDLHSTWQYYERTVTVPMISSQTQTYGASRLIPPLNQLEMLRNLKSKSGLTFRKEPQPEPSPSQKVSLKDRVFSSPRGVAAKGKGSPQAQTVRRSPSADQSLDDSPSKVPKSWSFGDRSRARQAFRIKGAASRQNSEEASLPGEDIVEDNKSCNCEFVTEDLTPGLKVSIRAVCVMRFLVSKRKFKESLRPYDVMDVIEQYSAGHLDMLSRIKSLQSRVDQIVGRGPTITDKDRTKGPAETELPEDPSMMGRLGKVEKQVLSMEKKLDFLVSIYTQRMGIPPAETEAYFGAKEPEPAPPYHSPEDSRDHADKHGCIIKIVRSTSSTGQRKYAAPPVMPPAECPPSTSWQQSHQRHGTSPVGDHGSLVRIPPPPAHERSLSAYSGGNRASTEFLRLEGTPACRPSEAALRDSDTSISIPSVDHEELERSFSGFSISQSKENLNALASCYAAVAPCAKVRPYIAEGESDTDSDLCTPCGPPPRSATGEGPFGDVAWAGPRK
KCNQ2 block baseline – also measured in KCNQ2 block; calls as there; B-score; measured here: initial fluorescence intensity artifact check;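 brightness before thallium and not channel activity; 0 = typical well and far values either way flag optical interference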
The depositor's hits bear a star; i = inactive. Not all compounds are listed; count on the stated rates, not on these rows.

KCNQ2 block	KCNQ2 block baseline	SMILES
i	-0.87	Cc1cccc(OCc2nnc(SCC(=O)N3CCN(c4ccccc4)CC3)o2)c1C
-6.57*	0.02*	Cc1ccc(C)c(N2CCN(c3ncccc3[N+](=O)[O-])CC2)c1
i	-1.12	Cc1ccc2nsnc2c1S(=O)(=O)N1CCCC1
-6.66*	-2.64*	Cc1ccccc1COn1nnc2ccc(S(=O)(=O)N3CCOCC3)cc21
i	0.34	CCc1nc(N)c(C#N)c(-c2cccn2C)c1C
i	-2.42	CCCC[C@@H]1C[C@H]1[C@@H](NC(=O)c1ccccc1)c1ccccc1C(F)(F)F
i	-2.35	CCOC(=O)C1(CC2CCCCO2)CCN(S(=O)(=O)c2ccc(OC)cc2)CC1 (configuration not stated)
i	1.04	Cc1noc(C)c1C(=O)Nc1nc(-c2ccccc2Cl)cs1
i	-0.01	Cc1ccc(CNC(=O)CSc2nnc(CNC(=O)c3ccccc3)o2)cc1
i	1.07	Cc1cc(C(C)(C)C)nc2[nH]n(-c3ccccc3)c(=O)c12
-6.41*	0.04*	CC(C)(C)c1ccccc1N=Cc1ccc2ccccc2n1
i	0.48	Cc1ccn2cc(-c3ccc(O)c(O)c3)nc2c1
i	-0.63	CC(OC(=O)CCN=C1NS(=O)(=O)c2ccccc21)C(=O)Nc1ccc(F)c(F)c1F (configuration not stated)
i	0.3	CC(C)(CO)NCc1ccc(Br)cc1
i	1.69	COc1ccc(/C=C/C(=O)CCC(=O)O)cc1

Single records, as listed above. Values in the order: KCNQ2 block, KCNQ2 block baseline
Cc1ccccc1COn1nnc2ccc(S(=O)(=O)N3CCOCC3)cc21 is listed as -6.66*, -2.64*
Cc1noc(C)c1C(=O)Nc1nc(-c2ccccc2Cl)cs1 is listed as i, 1.04
COc1ccc(/C=C/C(=O)CCC(=O)O)cc1 is listed as i, 1.69
Cc1ccc(C)c(N2CCN(c3ncccc3[N+](=O)[O-])CC2)c1 is listed as -6.57*, 0.02*
CC(C)(C)c1ccccc1N=Cc1ccc2ccccc2n1 is listed as -6.41*, 0.04*

(next part)
KCNQ2 block	KCNQ2 block baseline	SMILES
i	-2.28	CC1CCN(CCCNC(=O)c2cc3c(s2)-c2ccccc2OC3)CC1
i	2.36	CCN(CC)CC(=O)c1ccc(-c2ccccc2)cc1
i	-0.42	Cc1cc(NC(=O)CCC(=O)N(CC(=O)NC2CCCC2)c2ccc(F)c(Cl)c2)no1
i	0.17	CCOc1ccc(C(CC(=O)O)NC(=O)c2ccco2)cc1 (configuration not stated)
i	0.81	C/C(=N\N1CCN(Cc2ccc(Cl)cc2)CC1)c1ccc([N+](=O)[O-])cc1
i	1.24	C=CCc1cccc(CNc2c(C)cc(C)cc2C)c1O
i	4.23	CCOc1cc2[nH]c(=O)n(CCC(=O)N3CCN(c4ccccc4OC)CC3)c(=O)c2cc1OCC
i	1.46	COC(=O)c1ccc(-n2c(C)cc(C(=O)COC(=O)CC3Sc4ccccc4NC3=O)c2C)cc1 (configuration not stated)
i	-0.44	CCN(CCCNC(=O)CN(C)S(=O)(=O)c1ccc2c(c1)CCC(=O)N2)c1cccc(C)c1
i	0.89	CCN(CC)S(=O)(=O)c1cccc(C(=O)N[C@H](C(=O)NCc2ccc(Cl)cc2)C(C)C)c1
i	0.33	c1ccc(CCn2nnnc2CN2CCc3ccccc32)cc1
i	-0.7	CC1(C)Oc2ccc(C(=O)NC3CCCC3)cc2N(CC(=O)NC2CCCC2)C1=O
i	-0.07	O=[N+]([O-])c1cccc(CN2CCN(S(=O)(=O)Cc3ccccc3)CC2)c1
i	-0.37	CCCCN(Cc1cc2cc(OC)ccc2[nH]c1=O)C(=O)c1ccccn1
i	1.43	CCc1[nH]c(=O)c(C#N)c2c1COC(C)(C)C2
i	2.09	COc1cccc(OCC(=O)NC2CCCCC2)c1
i	0.65	COc1ccc(S(=O)(=O)N(n2c(C)nnc2-n2nc(C)cc2C)S(=O)(=O)c2ccc(OC)cc2)cc1
i	-0.43	Cc1ccccc1CN(C)CCS(=O)(=O)c1cc(Cl)ccc1Cl
i	2.23	COCCNC(=O)c1cn(C)c2ccc(S(=O)(=O)N3CCCC3)cc2c1=O
i	2.09	CCNC(=S)NC(=NCc1cccnc1)Nc1nc(C)cc(C)n1
i	1.71	O=[N+]([O-])c1ccc(-n2nnnc2CN2CCCCC2)cc1
i	0.04	COc1ccc(CN2CCN(c3ccccn3)CC2)c(OC)c1C
i	0.99	O=C(CN1C(=O)C2(OCCO2)c2ccccc21)c1ccc(Br)cc1
i	1.52	COc1ccc(NC2CC(=O)N(c3cccc(C)c3)C2=O)cc1 (configuration not stated)
i	-0.07	CCOC(=O)C1=C(C)Nc2ccccc2N=C1NC(=O)Cc1ccc(Cl)c(Cl)c1
i	0.02	Cc1ccc(N/C(N)=N/c2nc3c(c(=O)[nH]2)CCCC3)c(C)c1
i	-0.52	S=C1NC2(CCCC2)Nc2ccccc21
i	1.79	Cc1c(CBr)[n+](=O)c2c(n1[O-])C(Br)CCC2Br (configuration not stated)
i	-0.09	CC(C)C[C@H](NC(=O)N1CCn2c1nc1ccccc12)C(=O)NCc1ccco1
i	0.21	CCOC(=O)C1CCCN(Cc2cc(=O)oc3cc(C)c(C)cc23)C1 (configuration not stated)
i	0.24	C/C(=N\NC(=O)CSc1nc(C)cc(C)n1)c1cccs1
i	-0.42	COc1cccc(N2C(=NC(=O)COc3ccccc3)SC3CS(=O)(=O)CC32)c1 (configuration not stated)
i	-0.07	COc1ccc(/C=C/C(=O)c2ccccc2O)cc1CN1CCOCC1
i	0.03	CCOC(=O)c1sc(=NC(=O)c2ccc(OC(C)C)cc2)n(C)c1C
i	-2.05	O=C(C1=C[C@H](c2ccc(C(F)(F)F)cc2)C[C@H](OCCCCO)O1)N1CCN(Cc2ccc3c(c2)OCO3)CC1
i	0.12	CCOCC(=O)Nc1cc(OC)c(Cl)cc1OC
i	3.71	CC(C)N(CC#CC(O)(c1ccccc1)c1ccccc1)CCO
i	0.48	CC(C)(C)c1ccc(C(=O)N/C(N)=N/c2nc3ccccc3o2)cc1
i	-0.1	COc1cc(OC)c(C(=O)Nc2ccccc2-c2ccccc2)cc1OC
i	0.83	Cc1ccc(N/C(N)=N/c2nc(CSc3nnc(C)s3)cc(=O)[nH]2)c(C)c1
i	-0.14	CCn1c(CCNC(=O)c2ccc(C)cc2)nnc1SCc1ccc(Cl)c(Cl)c1
i	2.37	CCCOC(=O)CC1C(=O)NCCN1C(=O)OC(C)(C)C (configuration not stated)
i	-0.7	CCc1ccc(NC(=O)NNC(=O)c2cc3ccccc3cc2O)cc1
i	-1	CCn1c(=O)c(C(=O)NNS(=O)(=O)c2ccc(Br)cc2)c(O)c2ccccc21
i	3.72	CC(C)N(C(=O)C[n+]1ccc(/C=N/O)cc1)C(C)C

Another view of five compounds above.
mol	KCNQ2 block	KCNQ2 block baseline
COc1cccc(N2C(=NC(=O)COc3ccccc3)SC3CS(=O)(=O)CC32)c1 (configuration not stated)	i	-0.42
COc1ccc(/C=C/C(=O)c2ccccc2O)cc1CN1CCOCC1	i	-0.07
CCOC(=O)c1sc(=NC(=O)c2ccc(OC(C)C)cc2)n(C)c1C	i	0.03
O=C(C1=C[C@H](c2ccc(C(F)(F)F)cc2)C[C@H](OCCCCO)O1)N1CCN(Cc2ccc3c(c2)OCO3)CC1	i	-2.05
CCOCC(=O)Nc1cc(OC)c(Cl)cc1OC	i	0.12

New compounds follow.
KCNQ2 block	KCNQ2 block baseline	SMILES
i	-0.72	CN(CC(=O)Nc1ccccc1C(F)(F)F)C(=O)COc1ncnc2sccc12
i	-0.4	O=C1CNC(=O)N1CC(O)Cn1c2ccccc2c2ccccc21 (configuration not stated)
i	-1.52	CCC(C)(C)n1c(=O)[nH]c2c(c1=O)CCC2
i	-0.75	CCCCCOC(=O)Cn1c(=O)oc2ccccc21
i	1.78	O=C(COc1ccc2c(c1)CCC2)N1CCc2ccccc21
i	0.35	COCCNC(=O)CNC(=O)c1nn(-c2ccc(OC)c(Cl)c2)c(=O)c2ccccc12
i	-1.08	COc1cccc(C(=O)O/N=C(\N)Cc2ccc(Cl)cc2)c1
i	3.21	CC1(C)Cc2c(sc(NC(=O)C(=O)N3CCCCC3)c2C(=O)O)CO1
i	-0.85	CC(=O)N(c1ccccc1)C1CCCC1
i	0.8	O=C(C1CCCN(S(=O)(=O)c2cccs2)C1)N1CCC(N2CCCCC2)CC1 (configuration not stated)
i	-1.82	CC(=O)N1c2ccc(S(=O)(=O)NCC3CCC(C(=O)NC4CCCCC4C)CC3)cc2CC1C (configuration not stated)
i	0.99	C/C(=N\Nc1ccc(S(N)(=O)=O)cc1[N+](=O)[O-])c1ccccc1O
i	0.01	COc1cc(OC)c(C(=O)NNC(=S)NC2CCCCC2)cc1OC
i	-0.95	Cc1nnc2n1N=C(c1ccc3c(c1)NC(=O)CO3)CS2
i	3.74	Cc1cccc(N2C(=O)CC(Sc3nnc(C)s3)C2=O)c1 (configuration not stated)
i	1.72	CC(NS(=O)(=O)c1ccc(Br)cc1)c1ccccc1 (configuration not stated)
i	-0.31	COc1ccc(OC)c(C2C(C(C)=O)=C(O)C(=O)N2CCC(=O)O)c1 (configuration not stated)
i	0.56	COc1ccc(CC(=O)N2CCN(c3ccc(F)cc3)CC2)cc1
i	-1.67	COc1ccc(Nc2nnc(-c3ccc(O)cc3)c3ccccc23)cc1
i	-1.89	O=C(CS(=O)(=O)c1ccc(F)cc1)N1CCOCC1
i	-0.47	COc1cc(NC(=O)CSc2nnc3ccc(-c4cccnc4)nn23)cc(OC)c1
i	0.12	O=C1c2ccccc2CC1(Cc1ccccc1)Cc1ccccc1
i	0.74	CC(C)(C)N1C(=O)c2ccc(C(=O)O)cc2C1=O
i	0.83	CCOc1ccc(Br)cc1S(=O)(=O)Nc1cccc(S(=O)(=O)N(CC)CC)c1
i	0.27	COc1ccc(OC)c(N(CC(=O)NCc2ccccn2)S(C)(=O)=O)c1
i	-0.36	COc1ccc(C2=Nn3c(nnc3-c3ccncc3)SC2)cc1OC
i	0.92	O=C(c1cc(C2CC2)on1)N1CCN(c2ccc(F)cc2)CC1
i	-1	COc1ccccc1NS(=O)(=O)c1cccc(C(=O)NCc2ccncc2)c1
i	1.07	CN(C(=O)COC(=O)c1cccnc1Nc1ccccc1F)C1CCS(=O)(=O)C1 (configuration not stated)
i	1.04	Cc1ccc2cc(-c3noc(C4CCCCC4)n3)c(=O)[nH]c2c1
i	1	Cc1ccc(S(=O)(=O)c2c(N)n(-c3ccccc3)c3nc4ccccc4nc23)cc1
i	-0.36	COc1cc(C)c2occ(/C(C)=N\O)c2c1
i	0.23	COc1cc(NC(=O)CCN2CCN(C/C=C/c3ccccc3)CC2)cc(OC)c1
i	-0.17	O=C(CCN1CCN(S(=O)(=O)c2cccc([N+](=O)[O-])c2)CC1)Nc1ccccc1F
i	-1.02	Cc1ccc(Oc2c(C(N)=O)cc([N+](=O)[O-])cc2[N+](=O)[O-])cc1
i	-0.21	COc1ccc(N(CCCN2C(=O)c3cccc4cccc(c34)C2=O)C(=O)c2cccc(OC)c2)cc1
i	0.41	Cc1ccc(C)c(N2CCN(C(=S)Nc3ccc4nc(N5CCOCC5)cc(C)c4c3)CC2)c1
i	-0.37	COc1ccc(N)cc1-n1c(C)ccc1C
i	2.88	COc1cccc(CNC(=O)c2cccs2)c1
i	-0.54	O=c1c2[nH]c3ccccc3c2ncn1CCN1CCNCC1
i	-1.33	Cc1ccc(NS(=O)(=O)c2cc(C(=O)NCCSC3CCCCC3)ccc2C)cc1
i	1.73	CCNc1nc(NCC)nc(C(=O)NN)n1
i	0.02	COc1ccc(C)cc1-n1nnnc1SCC1CCCCO1 (configuration not stated)
i	-1.15	COc1ccc(/C=C/C(=O)Nc2nc(C)cc(C)n2)cc1OC
i	3.63	CCCc1cc(=O)oc2cc(OCC(=O)NCCCn3ccnc3)c(Cl)cc12
i	0.26	CCc1cc(Cn2nc(-c3ccccc3)cc2C(=O)NCc2ccc(C)cc2)on1
i	-0.05	CC(C)n1c(O)c(N=NC(=O)CNC(=O)Cc2ccc(Cl)cc2)c2ccccc21
i	2.1	CC(OC(=O)c1cnccn1)C(=O)c1ccccc1 (configuration not stated)
i	0.56	Cc1ccccc1C(=O)NCCCNC(=O)c1ccccc1C
i	-0.77	Cc1ccc(C(C)C)c(OCCOCCN2CCNCC2)c1
i	2.13	COc1ccc(-c2nnc(N(C)C(=O)C3CCCO3)s2)cc1 (configuration not stated)
i	0.61	COCC(C)n1c(SCC(=O)N(C)C2CCS(=O)(=O)C2)nc2ccccc2c1=O (configuration not stated)
i	-2.2	C/C(=N\NC(=O)c1ccccc1F)c1ccccn1
i	0.5	COc1cccc(CN(C)CC(=O)NC(=O)NCc2ccccc2)c1
i	0.34	Cc1ccc(Cn2ncc3c(N4CCN(c5ccc(C)cc5)CC4)ncnc32)cc1
i	-2.52	Cc1cc2oc(=O)cc(CN3CCCCC3C)c2cc1C(C)C (configuration not stated)
i	-0.64	Fc1cccc(Cl)c1-c1nnc2ccc(C(F)(F)F)cn12
i	-0.85	O=C(O)c1cc(NC(=O)c2cccc(C(=O)Nc3cc(C(=O)O)cc(C(=O)O)c3)c2)cc(C(=O)O)c1
i	0.2	Cc1sc2ncn(CC(=O)NCCCC(=O)N(C)Cc3ccccc3)c(=O)c2c1C
i	-0.67	COc1cc(SC)ccc1C(=O)N(C)Cc1ccccc1

Following part:
KCNQ2 block	KCNQ2 block baseline	SMILES
i	2.49	CCCC(=O)NC(c1ccc(N(C)C)cc1)c1ccc2cccnc2c1O (configuration not stated)
i	-0.44	Oc1ccc(/C=N/NC(=S)Nc2cccnc2)cc1O
i	0.16	Cc1ccc(-c2ccc(/C=N/NC(=O)CN3CCCC3)o2)cc1Cl
i	-0.62	CC(C)CNC(=O)c1cccc2c1-c1ccccc1C2=O
i	0.56	Cc1cc(C)n2nc(SCN3C(=O)c4ccccc4C3=O)nc2n1

Screening results: PubChem BioAssay, Johns Hopkins Ion Channel Center
